# Screening data from PubChem BioAssay.
# PKD1 kinase inh = blocks activity of human protein kinase D1; Q15139; PKD1 kinase fluorescence polarization assay; inhibition, %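 (about 10 µM by stock and volumes)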; 200,000 compounds, 0.056% hits; AID 797;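 active means inhibition of 50% or more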;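 further: controls were vehicle for no effect and a reference inhibitor for full effect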
# Target sequence (Q15139 whole entry, looked up): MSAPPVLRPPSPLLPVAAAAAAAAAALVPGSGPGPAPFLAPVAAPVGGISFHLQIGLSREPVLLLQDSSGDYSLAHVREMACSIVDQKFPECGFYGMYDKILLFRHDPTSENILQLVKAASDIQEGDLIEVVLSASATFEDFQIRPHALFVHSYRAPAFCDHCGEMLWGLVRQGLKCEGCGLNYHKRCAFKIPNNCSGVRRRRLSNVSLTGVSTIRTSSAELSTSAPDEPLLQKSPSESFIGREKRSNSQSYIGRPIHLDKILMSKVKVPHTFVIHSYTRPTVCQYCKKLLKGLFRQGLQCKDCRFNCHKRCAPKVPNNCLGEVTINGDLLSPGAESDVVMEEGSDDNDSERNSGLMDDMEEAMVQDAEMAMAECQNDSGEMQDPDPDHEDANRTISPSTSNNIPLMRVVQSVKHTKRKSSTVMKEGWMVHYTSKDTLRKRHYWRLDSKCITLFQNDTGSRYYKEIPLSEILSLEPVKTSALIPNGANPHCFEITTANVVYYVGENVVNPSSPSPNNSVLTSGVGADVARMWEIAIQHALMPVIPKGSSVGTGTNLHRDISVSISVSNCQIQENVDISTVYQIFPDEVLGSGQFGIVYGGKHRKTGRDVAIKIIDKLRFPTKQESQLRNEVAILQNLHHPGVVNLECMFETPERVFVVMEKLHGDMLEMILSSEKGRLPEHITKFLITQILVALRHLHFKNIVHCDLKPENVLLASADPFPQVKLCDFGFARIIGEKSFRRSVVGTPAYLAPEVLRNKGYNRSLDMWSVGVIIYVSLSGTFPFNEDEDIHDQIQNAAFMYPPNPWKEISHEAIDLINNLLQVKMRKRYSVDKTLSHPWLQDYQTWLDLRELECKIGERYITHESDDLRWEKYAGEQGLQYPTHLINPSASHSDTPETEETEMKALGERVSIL
# INS promoter inh = TRM-6 insulin promoter activity inhibition. TRM-6 cells (human fetal islet line), insulin promoter-eGFP reporter, imaging; reporter expression induced with tamoxifen. inhibition, % at 2 µM. 130,000 compounds, 0.9% hits;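 active means inhibition above the mean plus 3 SD, with well images judged a real hit on visual review, cut at about 60% in these data, passing the limit was not always enough; inconclusive means inhibition over the cutoff but images rejected on review; inactive means inhibition not above the cutoff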
# GALR2 ag = activates the human galanin receptor 2 | 140,000 compounds, 0.48% hits | activation, %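 (tested at 5 µM)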 | O43603 | AID 803 | GALR2-expressing cells, agonist activation read-out;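 active means above mean plus 3 SD of all compounds, about 5% in these data, not always enough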;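 further: 0% = vehicle buffer wells and 100% = reference agonist at full effect; tested in CHO reporter cells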
# HSV replic up = increases HSV replication in cells; AID 1956; HSV replication augmentation in cells, fold increase; maximum fold increase; 220,000 compounds, 0.005% hits;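 active means peak rise of 1.5-fold or more in the series; inconclusive means self-fluorescent or not available for retest; tested in PC3 cells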;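 further: first round at 10 µM; read as green reporter fluorescence; hits show the peak of a series up to 25 µM; 1 = signal of infected wells without compound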
# RGS16-Gao HTS = RGS16-Galphao interaction regulator (human); O15492+P09471; bead-based flow cytometry RGS16-Galphao binding, fluorescence; actives lie on both sides; binding response (% of control), % at 10 µM; 220,000 compounds, 0.38% hits;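 active means below 25% or above 175%, edge rows of some plates excepted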;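 further: Galphao activated by GDP with aluminum fluoride before binding; 100% = wells without compound and 0% = beads without RGS; some results beyond the cut were filed as inactive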
# INS promoter inh cell count = second read-out of INS promoter inh, no call of its own (marks repeat the call); normalized cell count, %; measured here: cell count, toxicity; reference of the scale not given here;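 cells exposed to compound for 48 h; stained nuclei by imaging scaled within each plate; lower means fewer cells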
# HSV replic up primary fold = recorded beside HSV replic up, whose call it bears; fold increase; compound at 10 µM; measured here: primary screen fold increase 10 uM; tested in PC3 cells;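 GFP signal in the first replicate; 1 = infected wells without compound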
# Starred values were filed as active, the others as inactive; i = inactive; ? = inconclusive; . = no result given. Compounds were not picked by outcome. About 1.3% of those tested had a hit in this group.
# Results follow in this order: HSV replic up primary fold	INS promoter inh cell count	HSV replic up	GALR2 ag	RGS16-Gao HTS	PKD1 kinase inh	INS promoter inh
- Cc1ccc(C(=O)N/N=C\c2ccc([N+](=O)[O-])s2)cn1
  0.85	140	i	-0.5	102	-1	-75
- O=C(CCCn1c(SCC(=O)NCC2CCCO2)nc2ccccc2c1=O)NCC1CCCO1 (configuration not stated)
  0.85	81	i	-0.4	99	-8	39
- COc1ccc(OCCSc2ncnc3nc[nH]c23)cc1
  0.93	.	i	-3.2	106	10	.
- Cc1ccc(/C=C/C(=O)c2ccc(C)cc2)cc1
  0.98	84	i	-0.1	106	-7	-367
- Cc1cccc(C)c1NC(=O)Cn1nnnc1N
  0.89	144	i	.	108	2	0
- Cc1cccc(OCC(=O)Nc2cccc(C(=O)NCC(C)C)c2)c1
  0.99	89	i	-1.7	111	-6	20
- Cc1cccc2c(N=Nc3ccc(S(=O)(=O)Nc4cccc(Cl)c4)cc3[N+](=O)[O-])c(O)[nH]c12
  0.94	.	i	.	103	5	.
- N=c1c(C(=O)NCc2ccc(F)cc2)cc2c(=O)n3ccccc3nc2n1Cc1ccco1
  .	104	.	4.0	161	6	-38
- CCC1S/C(=N/N=C/c2ccco2)N(c2ccc(F)cc2)C1=O (configuration not stated)
  .	129	.	-0.4	92	14	-33
- Cc1sc2nc(CN3CCN(S(=O)(=O)c4cccc5nonc45)CC3)[nH]c(=O)c2c1C
  0.85	125	i	-0.7	101	0	-21
- O=C(NCc1cccs1)c1ccc([N+](=O)[O-])cc1Cl
  0.99	.	i	-0.6	108	-7	.
- CCN(CCNC(=O)C1CCCN(Cc2nc(-c3ccc(OC)cc3)oc2C)C1)c1ccccc1 (configuration not stated)
  0.83	.	i	-1.8	93	6	.
- Cc1ccc(NC(=O)CSc2nnc(Cc3ccccc3)o2)cc1
  1	81	i	.	101	-7	-33
- Cc1ccc(Nc2nnc(SCC(=O)Nc3ncc(C(F)(F)F)cc3Cl)s2)cc1
  1	.	i	-0.5	95	-5	.
- O=C(CCC(=O)c1cccs1)NCc1cccnc1
  0.96	.	i	.	102	-2	.
- O=C(COC(=O)c1cccc(Oc2ccccc2)c1)NCc1ccco1
  0.99	135	i	-2.3	125	-4	-5
- Cn1c(SCc2ccccc2F)nnc1-c1cnccn1
  0.89	138	i	1.1	101	4	50
- CC(=O)Nc1cccc(Oc2cc(C#N)c(C#N)cc2N2CCOCC2)c1
  1.1	189	i	-1.6	100	4	-45
- CCOc1cccc(C(=O)NC(=S)NCc2cccnc2)c1
  1	132	i	0.7	109	8	7
- CCOC(=O)C1(C)NC(c2ccco2)C2C(=O)N(CC)C(=O)C21 (configuration not stated)
  0.95	.	i	.	107	-5	.
- COCCSc1nnc(NC(=O)Cc2ccccc2OC)s1
  0.86	100	i	-1.5	89	-9	-5
- COc1ccc(S(=O)(=O)NCC(c2cccnc2)N2CCN(c3ccc(F)cc3)CC2)cc1C (configuration not stated)
  0.93	72	i	-2.5	101	-16	-316
- COc1ccc(S(=O)(=O)Nc2cc(C)ccn2)cc1OC
  .	51	.	-0.5	100	-7	33
- Nc1ccc(C(=O)OCC(=O)NC2CCCc3ccccc32)cc1[N+](=O)[O-] (configuration not stated)
  .	178	?	0.1	99	-2	3
- CNc1nc(SC)nc2ccccc12
  0.87	.	i	.	100	3	.
- CC(=O)c1cc2c(cc1NS(=O)(=O)c1ccccc1)OCO2
  0.8	48	i	-0.8	104	7	3
- COC(=O)c1c(NC(=O)CN2CCN(C(=O)c3ccco3)CC2)c2cc(C)ccc2n1C
  0.98	124	i	-0.7	99	5	-42
- N/C(=N\OC(=O)c1ccccc1Cl)c1cccnc1
  0.93	91	i	-1.9	28	4	12
- CC(=O)c1c(C)nc(C)nc1NC(=O)C(C)C
  0.9	350	i	-3.8	102	-9	-34
- O=C(O)COc1ccccc1/C=N/Nc1ccc(S(=O)(=O)N2CCOCC2)cc1[N+](=O)[O-]
  1	.	i	.	101	-6	.

# Additional entries
# Results follow in this order: HSV replic up primary fold	INS promoter inh cell count	HSV replic up	GALR2 ag	RGS16-Gao HTS	PKD1 kinase inh	INS promoter inh
- Cn1c(NC(=O)c2ccc(S(=O)(=O)N3CCOCC3)cc2)cc(=O)n(C)c1=O
  0.88	88	i	-1.0	106	0	-43
- CCOc1ccc(-c2cc(C(=O)O)c3ccccc3n2)c(OCC)c1
  0.87	75	i	-0.4	102	2	-425
- CCOc1ccccc1N1C(=O)CC(Sc2ncccc2C(=O)O)C1=O (configuration not stated)
  1	120	i	-1.6	99	-5	67
- CCOC(=O)N1CCC(N(CCN(C)C)C(=S)Nc2cc(Cl)cc(Cl)c2)CC1
  0.75	114	i	.	100	-3	-78
- Cc1nc(-c2ccccc2)sc1-c1ccnn1C
  0.9	100	i	.	104	8	40
- O=C(C1CCCN(Cc2ccccc2C(F)(F)F)C1)N1CCCCC1 (configuration not stated)
  0.99	98	i	-2.4	90	-6	-49
- COc1ccc(-c2cc(OC)c3c(C)oc(C)c3c(=O)c2)cc1OC
  0.77	100	i	-1.5	95	3	24
- COC(=O)c1[nH]c2ccc(F)cc2c1NC(=O)C1=COCCO1
  0.9	81	i	-3.7	99	-20	-45
- O=C(COC(=O)c1ccc2[nH]c3c(c2c1)CCCC3)Nc1ccccc1Cl
  0.95	.	i	.	103	7	.
- N#C/C(=C(/O)COC(=O)CCC1CCCCC1)c1nc2ccccc2[nH]1
  0.85	43	i	-0.7	100	-19	66
- COCCCNc1c2c(nc3nnnn13)CCCC2
  1	78	i	.	36	-8	37
- CCCOc1ccc(C2C(C(=O)c3ccc(C)o3)=C(O)C(=O)N2CCCn2ccnc2)cc1 (configuration not stated)
  1.1	109	i	1.4	.	5	28
- COc1ccc(Nc2nnc(-c3ccccc3)c3ccccc23)cc1C(=O)N1CCCCC1
  1	123	i	1.8	102	-9	19
- CN1C(C(=O)NCc2ccc(OC(F)(F)F)cc2)CC2Cn3c(nc4ccccc43)C21 (configuration not stated)
  0.91	.	i	.	104	.	.
- CCOc1ccccc1N1CCN(c2nc(N)c(C#N)c(CC#N)c2C#N)CC1
  1.1	124	i	-0.1	105	-3	-52
- OC(CCN1CCCC1)(c1ccccc1)C1CCCCC1 (configuration not stated)
  0.87	153	i	-0.3	105	-1	-18
- O=C(Cn1nnc(-c2ccccc2)n1)NCc1ccccc1
  0.66	133	i	-0.7	99	-3	8
- COc1ccc(NC(=O)COC(=O)c2c(C)noc2C)c(OC)c1
  0.99	46	i	0.5	99	1	32
- COC(=O)Cc1c(C)c2ccc(OCC(C)=O)c(C)c2oc1=O
  0.86	161	i	-1.0	100	-2	38
- CCO[C@H]1OC(C(=O)NCc2nc3ccccc3[nH]2)=C[C@@H](c2csc3ccccc23)[C@@H]1CCCO
  0.8	.	i	.	100	-4	.
- CC(/C=N/NC(=O)Cc1cccn1C)=C\c1ccco1
  0.97	54	i	0.6	85	-14	22
- Cc1c(Cc2ccc3c(c2)OCO3)sc(NC(=O)c2ccccc2)c1C(N)=O
  0.89	141	i	-0.5	104	0	22
- Cc1cc(Oc2ccc(=O)[nH]n2)nc(Cl)n1
  1.2	.	i	.	104	.	.
- NC(=S)N/N=C/c1ccc(-c2cc(Cl)ccc2Cl)o1
  1	67	i	-2.8	98	-3	14
- CCOC(=O)N1CCN(C(=O)c2ccc3c(SCC(=O)O)c4c(nc3c2)CCCC4)CC1
  0.88	.	i	-2.1	102	11	.
- CC(=O)OCCOc1nc(N(C)C)nc(N(C)C)n1
  0.81	108	i	-1.8	99	-1	27
- CCOCCCNC(=O)c1cccs1
  0.94	96	i	-0.9	96	7	-27
- CC1=C(C(=O)OC(C)C)C(c2cncc(-c3ccc(F)cc3)c2)C(C#N)=C(N)O1 (configuration not stated)
  0.88	80	i	0.0	97	-5	-41
- CCCCC(=O)NC(=S)NNC(=O)CCc1ccccc1
  0.95	.	i	.	98	.	.
- O=C(Nc1ccc(-c2nc3cccnc3s2)cc1)C1CCCO1 (configuration not stated)
  .	111	.	-0.9	83	-2	17

# Structures above with fluorine, in the order listed:
# Results follow in this order: HSV replic up primary fold	INS promoter inh cell count	HSV replic up	GALR2 ag	RGS16-Gao HTS	PKD1 kinase inh	INS promoter inh
- N=c1c(C(=O)NCc2ccc(F)cc2)cc2c(=O)n3ccccc3nc2n1Cc1ccco1
  .	104	.	4.0	161	6	-38
- CCC1S/C(=N/N=C/c2ccco2)N(c2ccc(F)cc2)C1=O (configuration not stated)
  .	129	.	-0.4	92	14	-33
- Cc1ccc(Nc2nnc(SCC(=O)Nc3ncc(C(F)(F)F)cc3Cl)s2)cc1
  1	.	i	-0.5	95	-5	.
- Cn1c(SCc2ccccc2F)nnc1-c1cnccn1
  0.89	138	i	1.1	101	4	50
- COc1ccc(S(=O)(=O)NCC(c2cccnc2)N2CCN(c3ccc(F)cc3)CC2)cc1C (configuration not stated)
  0.93	72	i	-2.5	101	-16	-316
- O=C(C1CCCN(Cc2ccccc2C(F)(F)F)C1)N1CCCCC1 (configuration not stated)
  0.99	98	i	-2.4	90	-6	-49
- COC(=O)c1[nH]c2ccc(F)cc2c1NC(=O)C1=COCCO1
  0.9	81	i	-3.7	99	-20	-45
- CN1C(C(=O)NCc2ccc(OC(F)(F)F)cc2)CC2Cn3c(nc4ccccc43)C21 (configuration not stated)
  0.91	.	i	.	104	.	.
- CC1=C(C(=O)OC(C)C)C(c2cncc(-c3ccc(F)cc3)c2)C(C#N)=C(N)O1 (configuration not stated)
  0.88	80	i	0.0	97	-5	-41

# The results go on:
# Results follow in this order: HSV replic up primary fold	INS promoter inh cell count	HSV replic up	GALR2 ag	RGS16-Gao HTS	PKD1 kinase inh	INS promoter inh
- COc1ccc(CCNS(=O)(=O)c2ccc(C(=O)NCc3ccco3)cc2)cc1OC
  0.9	80	i	-1.0	96	-9	-4
- COc1ccccc1N1CCN(c2nc(-c3ccccc3)cc(C(F)(F)F)n2)CC1
  0.95	120	i	-0.6	98	15	-80
- Cc1cc(C)cc(OCC(=O)Nc2ccc(CN3CCCCC3)cc2)c1
  0.89	83	i	.	100	-4	14
- CC(NC(=O)c1ccccc1Cl)c1nnc(SCC(=O)Nc2ccc(C(=O)O)cc2)n1C (configuration not stated)
  0.88	92	i	-0.9	108	-11	25
- Cc1[nH]c(-c2ccccn2)nc(=S)c1Cl
  0.86	.	i	.	105	.	.
- CCCNS(=O)(=O)c1ccc(CCC(=O)N2CCN(CC)CC2)cc1
  0.85	75	i	-2.3	105	-2	57
- COc1ccc(-c2cc(C(F)(F)F)n3ncc(C(=O)NCC4CCCO4)c3n2)cc1OC (configuration not stated)
  1.1	.	i	-1.9	108	0	.
- CCOC(=O)CSc1ncc(-c2ccccc2)nn1
  0.88	.	i	-3.7	99	0	.
- COc1ccccc1NC(=O)CN1C(=O)C(C)Oc2ccccc21 (configuration not stated)
  0.88	.	i	-2.3	100	4	.
- COc1ccccc1NS(=O)(=O)c1ccc(O)c(C(=O)OCc2cccc([N+](=O)[O-])c2)c1
  0.95	.	i	.	101	2	.
- Clc1ccc(-c2csc(N/N=C/c3ccco3)n2)cc1
  0.95	.	i	.	105	.	.
- COc1ccc(-c2cn3cccnc3n2)cc1NC(=O)C1CC1
  1.1	112	i	-3.9	101	-7	36
- O=C(COC(=O)c1cc[n+]([O-])cc1)NCCc1ccc(Cl)cc1Cl
  0.93	118	i	.	106	2	33
- CCOc1ccc2[nH]c(=O)c(CN(CCN3CCCC3)C(=S)Nc3ccccc3OCC)cc2c1
  0.94	.	i	.	108	-5	.
- CCOc1c(Cl)cnn(-c2ccc(C)cc2)c1=O
  0.85	159	i	-2.6	105	9	-75
- Cc1nn(CC(N)=O)c(=O)c2ccccc12
  0.94	114	i	-0.7	110	-8	18
- N#CCCn1cc(/C=N/NC(N)=S)c(-c2ccccc2)n1
  0.91	105	i	.	101	-1	-71
- CCOC(=O)c1ccc(NC(=O)N2CCN(Cc3cccc(F)c3)CC2)cc1
  0.97	73	i	1.5	103	1	-22
- COc1ccc(CCNC(=O)C2CCC(=O)N2CCc2ccccc2)cc1OC (configuration not stated)
  0.93	105	i	.	93	-6	4
- CS(=O)(=O)c1ccc(N)cc1
  0.84	.	i	-2.1	103	-13	.
- CS(=O)(=O)N(CC(=O)NCC1CCCO1)c1cc(Cl)cc(Cl)c1 (configuration not stated)
  1.2	109	i	-1.8	103	-3	-1
- CCN(CC)C(=O)CSc1nnc2sc3ccccc3n12
  0.9	.	i	-1.2	97	-11	.
- O=c1oc2ccc(Br)cc2cc1S(=O)(=O)c1ccc(F)cc1
  0.92	95	i	-1.1	81	8	-8
- COc1ccc(-c2nn3c(-c4ccco4)nnc3s2)cc1OC
  0.95	92	i	-0.8	109	0	0
